UCH37 inh: blocks the human deubiquitinase UCH37 | Q9Y5K5 | purified proteasome/UCH37, Ub-AMC cleavage fluorescence | inhibition, % (no concentration beside the values) | 330,000 tested, 0.33% active | AID 588478;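 active = mean of two replicates above 20%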;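 also: 0% = compound-free wells with enzyme and 100% = wells lacking proteasome; stock transfer was 100 nL into about 20 µL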
Target sequence (Q9Y5K5 whole entry, looked up): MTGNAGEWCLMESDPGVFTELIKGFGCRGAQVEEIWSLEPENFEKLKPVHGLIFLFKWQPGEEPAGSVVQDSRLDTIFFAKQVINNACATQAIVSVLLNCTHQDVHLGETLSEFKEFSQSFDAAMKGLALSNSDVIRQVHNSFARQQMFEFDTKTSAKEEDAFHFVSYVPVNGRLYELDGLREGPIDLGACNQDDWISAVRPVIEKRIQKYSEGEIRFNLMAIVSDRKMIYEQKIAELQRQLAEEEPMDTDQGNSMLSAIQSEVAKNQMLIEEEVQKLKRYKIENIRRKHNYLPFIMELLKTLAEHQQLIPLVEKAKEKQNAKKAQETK
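Schedule: 30 min plus 25 min, room temperature / Material: human UCH37 within purified proteasomes / Technique: AMC fluorescence intensity at 355/460 nm / Buffer or medium: pH 7.4 Tris-HCl (50 mM) with ovalbumin, ATP-MgCl2, DTT / Controls: wells without proteasome as full block, compound-free enzyme plus substrate as uninhibited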
The depositor's hits bear a star. These rows are one share of the data; the hit share may differ from the screen's.

SMILES	UCH37 inh
O=C(NN=Cc1cccnc1)c1ccc(NC(=O)c2ccc(Cl)cc2)cc1	5.9
Cc1ccc(-c2ccc(C=Nc3ncn[nH]3)o2)cc1Cl	1.1
CCN(CC)c1ccc(C=NNS(=O)(=O)c2ccc(C)c([N+](=O)[O-])c2)cc1	4.2
Nc1nonc1C(=O)NN=Cc1ccc(-c2cccc([N+](=O)[O-])c2)o1	9.9
Cc1ccc(S(=O)(=O)NN=Cc2ccc([N+](=O)[O-])o2)cc1	3.3
Cc1ccc(-c2nn(-c3ccccc3)cc2C=NNC(=O)CSc2nnc(C)n2-c2ccccc2)cc1	-0.3
CCc1ccc(NC(=O)C(=O)NN=C(C)CC(=O)NCCOC)cc1	-1.3
O=[N+]([O-])c1ccc(Cl)c(C=Nn2c(COc3ccccc3)n[nH]c2=S)c1	0.4
CC(=NNC(=O)c1ccc(Cl)c(Cl)c1)c1cccc(NC(=O)C(C)C)c1	3.2
CC(=NOC(=O)c1ccc(Br)cc1)c1ccccn1	1.9
COc1cc(C=NNC(=O)c2ccccc2F)ccc1Oc1ccc([N+](=O)[O-])cn1	6.5
COc1ccc(Oc2ccccc2C=NO)cc1	1.0

The last 3 compounds of the part before open the next one.
SMILES	UCH37 inh
CC(=NOC(=O)c1ccc(Br)cc1)c1ccccn1	1.9
COc1cc(C=NNC(=O)c2ccccc2F)ccc1Oc1ccc([N+](=O)[O-])cn1	6.5
COc1ccc(Oc2ccccc2C=NO)cc1	1.0
COCCCNC(=S)NN=Cc1ccc(OC)c(Br)c1	0.7
CC[n+]1c(/C=C/c2c[nH]c3ccccc23)ccc2cc(C)ccc21	29.4*
O=S(=O)(c1cnccc1N1CCN(N=Cc2ccc(Br)cc2)CC1)N1CCCCC1	2.3
Cc1cc(C)n(CC(=O)NN=Cc2cccs2)n1	0.3
Cc1nn(-c2ccccc2)c(C)c1C=NN1CCN(c2ccc(Cl)cc2)CC1	2.6
N#CCCn1cc(C=NNC(N)=S)c(-c2ccc(Br)cc2)n1	9.9
CCOc1ccc(C=NNC(=O)c2cc(-c3ccccc3)nc3ccccc23)cc1O	-1.3
O=C(COc1ccc(Cl)cc1Cl)NN=Cc1ccc[nH]1	-0.3
COc1ccc(C=NNC(=O)c2cccnc2)cc1CN1CCc2ccccc2C1	4.8
CC(CC(=O)Nc1ccc(C)c(Cl)c1)=NNC(=O)Cc1cnc(N)s1	-0.5
O=C(CN1CCS(=O)(=O)CC1)NN=Cc1cccc(C(F)(F)F)c1	2.9
CCOC(=O)C1=C(C)N=c2sc(=Cc3ccc(OCC(=O)O)cc3)c(=O)n2C1c1cc(OC)c(OC)c(OC)c1 (stereo not given)	11.0
Cn1cc(C=Nn2cnc3sc4c(c3c2=O)CCCC4)c2ccccc21	2.2
CCC(=NNC(=O)c1ccccc1)c1ccc(OCCN2CCOCC2)cc1	3.6
Cc1ccc(C)c(S(=O)(=O)NN=Cc2cccnc2)c1	4.8
O=[N+]([O-])c1ccccc1C=Nn1c(C2CCCCC2)n[nH]c1=S	2.3
Cc1nn(C(C)(C)C)c(C)c1C=NOC(=O)Nc1ccc(Cl)cc1	2.8
O=C(NN=Cc1ccsc1)C1CC1	5.8
CC(CC(=O)Nc1ccc2c(c1)OCCO2)=NNC(=O)c1ccccn1	-2.7
CC(=NNC(=O)C1CC1c1ccccc1)c1ccc(C)s1 (stereo not given)	-2.5
O=C(NN=Cc1ccccn1)C(=O)N1CCCCCC1	3.3
CCc1ccc[n+](-c2[nH]c(=O)sc2C=N/N=C(\N)[O-])c1	6.0
Cc1nn(-c2ccccc2)c(C)c1C=Nn1c(-c2ccc(C(C)(C)C)cc2)n[nH]c1=S	7.9
CC(C)(C)c1ccc2c(c1)OC(C(=O)NN=Cc1ccncc1)CO2 (stereo not given)	0.6
Cc1ccc(C=NNC(=O)CSc2nc3ccccc3n2C)s1	10.2
S=c1[nH]ncn1N=Cc1ccccn1	4.2
NC(=NOC(=O)CC1CCCCC1)c1cccc([N+](=O)[O-])c1	0.9
COc1cccc(-c2c(C(=O)NN=C(C)c3cccnc3)nnn2-c2nonc2N)c1	-1.0
O=C(O)c1ccc(NN=C2CCSc3ccc(F)cc32)cc1	12.5
Clc1ccc2c(NN=Cc3cccc(Br)c3)ccnc2c1	-1.0
Cc1ccccc1OCC(=O)NN=Cc1ccncc1	5.5
CCOc1cccc(C=NNC(=O)C2CCCC2)c1O	-2.3
O=[N+]([O-])c1cc(C=NN2CCN(Cc3ccccc3)CC2)ccc1Cl	4.2
O=C(O)c1ccc(C=NNc2nnnn2-c2ccccc2)cc1	0.2
COC(=O)c1nn(-c2ccccc2)c(Cl)c1C=NOCc1ccc(Cl)cc1Cl	3.2
O=C(NN=C/C(Br)=C/c1ccccc1)c1ccccc1F	7.2
CCN(CC)c1ccc(C=NNc2cccc(C)c2)c(O)c1	10.5
C(=Nn1cnc2ccccc21)c1cccnc1	8.6
CC(=NNC(=O)CNC(=O)C1COc2ccccc2O1)c1ccc2c(c1)OCCO2 (stereo not given)	1.4
CC(=NNC(=O)c1ccccc1)c1c(C)[nH]n(-c2ccccc2)c1=O	-1.8
CN(C)c1ccc(C=NNC(=O)CN2CCCCC2)cc1Br	3.3
COc1ccc(C=NN2CCN(C3c4ccccc4-c4ccccc43)CC2)cc1O	3.0
CC(C)(C)c1ccc(C=NN2C(=O)CSC2=S)cc1	1.8
Cc1cccc(N=Cc2c(C)[nH]n(-c3ccccc3)c2=O)n1	7.0
CC(=NNc1ccc2nncn2n1)c1ccc(Cl)s1	8.5
O=S1(=O)N=C(N(CCO)N=Cc2ccc(Br)cc2)c2ccccc21	-126.5
COc1ccc(C(=O)NN=Cc2cc(Br)ccc2O)cc1OC	-5.4
COc1cc(C=NNC(=O)[C@H](Cc2c[nH]c3ccccc23)NC(=O)OCC(C)C)cc([N+](=O)[O-])c1O	17.8
CC12CCC(C(=O)Nc3cc(Cl)ccc3Cl)(CC1=NO)C2(C)C (stereo not given)	3.5
CC(=N/N=C1/NC(=O)C(CC(=O)Nc2ccc(C)c(Cl)c2)S1)C(C)C (stereo not given)	3.3
Cc1ccccc1N(CC(=O)NN=Cc1ccc(F)cc1)C(=O)c1ccccc1	5.2
COc1ccc(C(=O)NCC(=O)NN=C/C(C)=C/c2ccccc2)cc1OC	6.4
Cc1ccc(C=NNC(=O)COc2ccc(C)cc2[N+](=O)[O-])cc1	3.1
Cc1cc(C)n2nc(C(=O)NN=Cc3cccc(Cl)c3)nc2n1	4.9
Cc1occc1C(=O)NN=Cc1ccc[nH]1	9.2
CC(=NNC(=O)Cc1ccccc1Cl)c1cccnc1	5.2
CC(=NNc1ccc([N+](=O)[O-])cc1)c1ccc(-n2nncc2C(C)(C)C)cc1	5.8
COc1ccc(S(=O)(=O)NN=Cc2ccc(OCCN3CCOCC3)c(OC)c2)cc1	2.1
CC(C)NC(=O)COc1ccc(C=NNS(=O)(=O)c2ccccc2)cc1	-1.2
COc1ccc(Br)cc1C=NN1C(=O)CSC1=S	3.1

Remaining list, next part.
SMILES	UCH37 inh
O=C1CC(C(=O)Nc2ccc(Cl)cc2)S/C(=N\N=Cc2ccco2)N1 (stereo not given)	3.5
CC(=NNC(=O)c1nnn(-c2nonc2N)c1COc1ccccc1)c1ccc(O)cc1	0.4
O=C(NN=Cc1cc(Br)c(Br)o1)C(O)c1ccccc1 (stereo not given)	3.5
CN(C)C=NC(=S)Nc1ccccc1F	-2.4
CCOc1cc(C=NN=C(N)c2nonc2N)cc(Br)c1OCc1ccc(Cl)cc1	9.4
CCc1ccc(C=NN2CCN(c3ccccn3)CC2)cc1	2.3
COc1cc(OC)c(C=NNC(=O)c2ccc(Cn3nc([N+](=O)[O-])cc3C)cc2)c(OC)c1	3.4
COc1ccc(OC)c(C=NNC(=O)c2c(C)nc3ccc(C)cn23)c1	-436.8
COc1ccc(C=Nn2c(=O)[nH]c3c([nH]c4ccc(Br)cc43)c2=O)cc1CN1CCOCC1	-1.3
COc1ccc2cc(C(C)=NNC(=O)C3CC3)ccc2c1	-11.3
CCn1c(SCC(=O)NN=Cc2ccccc2OCC(=O)O)nnc1-c1ccc(C)cc1	2.1
CC(=NNS(=O)(=O)c1ccc(C)cc1C)c1ccc2c(c1)OCO2	-0.2

Pulled by structure from the entries so far:
SMILES	UCH37 inh
CC(=NNS(=O)(=O)c1ccc(C)cc1C)c1ccc2c(c1)OCO2	-0.2
COc1ccc2cc(C(C)=NNC(=O)C3CC3)ccc2c1	-11.3
CC(=NNC(=O)c1nnn(-c2nonc2N)c1COc1ccccc1)c1ccc(O)cc1	0.4
O=C1CC(C(=O)Nc2ccc(Cl)cc2)S/C(=N\N=Cc2ccco2)N1 (stereo not given)	3.5

New compounds follow:
SMILES	UCH37 inh
NC(Cc1ccc([N+](=O)[O-])cc1)=NOC(=O)c1ccco1	1.0
Cc1ccc(CSCC(=O)NN=Cc2ccc(OCC(=O)Nc3ccc(C)cc3)cc2)cc1	-7.9
O=C(NN=Cc1ccc([N+](=O)[O-])cc1)c1ccc(COc2ccccc2-c2ccccc2)cc1	7.8
NC(Cc1ccc([N+](=O)[O-])cc1)=NOC(=O)c1ccc2ccccc2c1	-0.6
CCn1cc(C=NNC(=O)Cc2ccc(Cl)cc2)cn1	1.8
O=C(NN=Cc1ccccn1)c1cc(-c2cccc3ccccc23)n[nH]1	1.0
COc1ccc(C(=O)NCCCCCC(=O)NN=Cc2ccco2)cc1OC	3.8
COc1ccc(C=NNC2=NS(=O)(=O)c3ccccc32)cc1OC	16.0
Cc1nn(C)c(C)c1C=NO	-0.6
N#Cc1ccc(C=NNC(=S)Nc2ccc(S(=O)(=O)N3CCOCC3)cc2)cc1	8.6
O=C(NN=C(CC(=O)c1cccs1)C(F)(F)F)c1cccnc1	6.3
Cc1ccc(S(=O)(=O)NN=C2CC(c3ccccc3)Oc3ccccc32)cc1[N+](=O)[O-] (stereo not given)	0.4
Cc1ccc(S(=O)(=O)NCC(=O)NN=Cc2ccc(Cl)cc2)cc1	2.9
O=C(NN=Cc1cc(Cl)cc([N+](=O)[O-])c1O)C(O)(c1ccccc1)c1ccccc1	6.8
O=C(NN=Cc1c[nH]c2ccccc12)c1ccc([N+](=O)[O-])cc1Cl	4.3
CCOC(=O)C1=C(N)n2c(sc(=Cc3cccs3)c2=O)=C(C(=O)OCC)C1c1cccs1 (stereo not given)	8.1
Cn1cc(C=Nn2cnc3scc(-c4ccc(Cl)cc4)c3c2=O)c2ccccc21	-10.6
O=[N+]([O-])c1ccc(Cl)c(C=Nn2c(C3CCCCC3)n[nH]c2=S)c1	4.6
NC(N)=NN=Cc1ccc(OS(=O)(=O)c2ccccc2)cc1	4.2
S=c1[nH]nc(-c2cccs2)n1N=Cc1cn(-c2ccccc2)nc1-c1ccccc1	3.1
Cc1ccc(OCC(=O)NN=Cc2ccc([N+](=O)[O-])o2)cc1	10.6
O=c1c(=Cc2ccco2)sc2n1CN(c1cccc(Br)c1)CN=2	1.0
Oc1ccc2ccccc2c1C=NNc1ccccc1	-11.0
Cc1cc(C(=O)NN=Cc2ccc(O)c(O)c2O)c(C)n1-c1ccccc1	7.6
Cc1cccn2c(C=NOCc3cccc(F)c3)c(-c3ccc(Cl)cc3)nc12	-35.6
O=C(NN=Cc1ccccc1OCc1ccccc1)c1cccnc1	0.7
CC(=NNC(=O)c1c(Cl)c(C)nn1C)c1ccc(NC(=O)COc2ccc(Cl)cc2C)cc1	0.6
COc1ccc(OCC(=O)NN=C(CCC(=O)O)c2cccs2)cc1	2.8
ON=Cc1cn(-c2ccc(Cl)cc2)nn1	2.1
COc1ccc2c(c1[N+](=O)[O-])CCCC2=NOC(=O)c1ccccc1SC	2.0
CC(=NNc1nncc2ccccc12)c1ccc(C(C)(C)C)cc1	3.3
Cc1ccc(NN=C(C#N)C(N)=S)c(C)c1	8.4
O=S(=O)(N=C(c1ccccc1)N1CCCCCC1)c1ccccc1	1.3
C=CCNC(=S)NN=Cc1ccc(C)s1	5.9
Cc1cc(C)nc(N=C(N)Nc2ccc([N+](=O)[O-])cc2)n1	7.8
Cc1cc(C=Nn2cnnc2)c(C)n1-c1ccc2c(c1)OCO2	6.4

Four entries already listed, ordered by their value in UCH37 inh, lowest first:
SMILES	UCH37 inh
O=S(=O)(N=C(c1ccccc1)N1CCCCCC1)c1ccccc1	1.3
COc1ccc(OCC(=O)NN=C(CCC(=O)O)c2cccs2)cc1	2.8
C=CCNC(=S)NN=Cc1ccc(C)s1	5.9
Cc1cc(C=Nn2cnnc2)c(C)n1-c1ccc2c(c1)OCO2	6.4

(next part)
SMILES	UCH37 inh
COc1ccc(C=NNc2ccc([N+](=O)[O-])cc2)cc1Cn1cc([N+](=O)[O-])cn1	0.9
CCN(CC)c1ccc(C=NN2CCN(Cc3ccc(C)cc3C)CC2)c(O)c1	0.8
COc1ccccc1C=NNc1ccccc1[N+](=O)[O-]	8.0
CCN(CC)c1ccc(C=NNC(=O)c2ccoc2C)c(O)c1	-22.3
CCC(=NN=C1SC(C)C(=O)N1Cc1ccco1)c1ccccc1 (stereo not given)	3.3
O=C(NN=Cc1cccs1)c1cc(-c2cccc3ccccc23)n[nH]1	4.5
COC(=O)c1sccc1NN=Cc1cccc(Oc2ccccc2)c1	-3.5
CCOc1cc(C=NNC(=O)Nc2ccccc2)ccc1O	2.4
CCOP(=O)(OCC)C(=NOC(=O)c1ccccc1C)C(N)=O	3.5
CCC(C=NNC(=O)C(=O)NN=CC(CC)CC)CC	5.6

A second format for part of the listing above:
CCOc1cc(C=NNC(=O)Nc2ccccc2)ccc1O
  UCH37 inh: 2.4

CCN(CC)c1ccc(C=NNC(=O)c2ccoc2C)c(O)c1
  UCH37 inh: -22.3
